NPYLR7 agonist: agonists of mosquito NPYLR7 receptor, primary screen, cell-based, Aedes aegypti, calcium fluorescence, mosquito biting behavior. HEK293T NPYLR7/Galpha15, GCaMP6s calcium fluorescence. activation, % at 10 µM. actives 0.15% (n = 270,000); in the data active means activation above about 40%;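 further: 0% = vehicle and 100% = reference agonist at the receptor; some compounds past the cut are filed as inactive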
NPYLR7 agonist max-min: recorded beside NPYLR7 agonist, whose call it bears; activation, %; measured here: Max-Min RFU normalised activation; some inactives read as strong as hits;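 span of the calcium signal over five minutes; 0% = vehicle and 100% = native peptide agonist; compound fluorescence can raise it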
Active calls of the source: *; & = joins results of further samples. These rows are one share of the data; count on the stated rates, not on these rows.

Screens in order – NPYLR7 agonist max-min	NPYLR7 agonist
N#Cc1ccccc1NC(=O)CC(C(=O)O)N1CCNCC1 (configuration not stated)
→ -3.3	-0.6
Cc1ccc(S(=O)(=O)N2CCN(C(c3ccccc3)c3ccc(Cl)cc3)CC2)cc1F (configuration not stated)
→ 28.2	32.4
CCc1nc2ccc(C(=O)Nc3cccc(OC)c3)cn2c1N(C)Cc1ccc(OC)cc1
→ 3.6	11.0
C#CCSc1nc2ccccc2[nH]1
→ 18.0	15.9
CCOc1ccc(-n2c(-c3ccccc3)cc(C(=O)N3CCC(Cc4ccccc4)CC3)c2C)cc1
→ 8.4	-3.1
N#Cc1cc(F)c(N2CCC(NC(=O)c3ccc(F)cc3)CC2)c(F)c1
→ 0.5	3.0
CCCCc1ncc(CN2CCc3c([nH]c4ccccc34)C2c2cccc(OC)c2OC)[nH]1 (configuration not stated)
→ -7.0	-5.5
CC12CCC(=O)N1c1ccccc1C(=O)N2CC(=O)N1CCCC1c1ccncc1 (configuration not stated)
→ -1.5	-0.2
CCOc1ccc2nc(Nc3nc(C)c(C)c(C)n3)nc(C)c2c1
→ 7.8	9.7
CC(=O)N(Cc1csc(COc2ccc(Cl)cc2)n1)C(C)C
→ 5.3	-0.6
CCn1c(C2CCCN(C(=O)c3cccnn3)C2)nn(CCN(C)C)c1=O (configuration not stated)
→ 1.0	3.6
COCc1cc(N2CCN(c3ccc(OC)cc3)CC2)nc(SCc2ccc(C(=O)NCCc3ccccn3)cc2)n1
→ 14.3	4.2
Cn1cc(C2=NNC(=Nc3ccccc3C(F)(F)F)SC2)cn1
→ -22.4	-19.9
COc1ccc(CNCc2cccc3ccccc23)cc1
→ -7.3	2.8
Nc1nc(Cl)cc(Nc2cnn(CCO)c2)n1
→ 8.9	9.6
COc1ccccc1-n1c(SCc2nc(C(=O)N3CCC4(CC3)OCCO4)cs2)nnc1-c1cccnc1
→ 8.8	-6.0
CC(C)Cc1ncc2c(n1)CN(C(=O)CCc1nc(Cl)n[nH]1)C2
→ -8.3	-5.5
COc1ccc(NC(=O)CSc2ccc3nnc(CCNC(=O)c4ccccc4)n3n2)cc1
→ 12.5	21.0
COc1ccc(OC)c2[nH]c(=O)c(CCNC(=O)c3ccc(C)cc3)cc12
→ 32.4	4.5
Cc1ccccc1C(=O)Nc1ccnn1C1CCN(C(=O)CCN2CCCO2)CC1
→ -0.2&-5.7	3.6&-3.1
Cc1cc(C)c2sc(N3CCN(C(=O)C4CCCN(S(C)(=O)=O)C4)CC3)nc2c1 (configuration not stated)
→ -1.9	-1.3
Cc1ccc(OCCCN(C)[C@@H]2c3ccccc3C3(CCNCC3)[C@H]2O)cc1
→ 5.4	17.0
COc1ccc(S(=O)(=O)Oc2ccccc2CN(Cc2ccc(F)cc2)C(=O)c2ccccc2Cl)cc1
→ 0.8	-7.1
C#CCOCC(O)CN(Cc1ccc(F)cc1)Cc1ccc(OC)cc1 (configuration not stated)
→ 10.6	-0.4
COc1cccc(C(=O)N2CCN(c3cc(Cl)nc(SCC(=O)N4CC(C)OC(C)C4)n3)CC2C)c1 (configuration not stated)
→ 9.7	2.3
Cc1ccc(-c2ccc(-c3ccn[nH]3)cc2)c(N)n1
→ -4.9	-3.0
Cc1cccc(C(=O)Nc2c(C(=O)N3CCOCC3)oc3ccccc23)c1
→ 8.4	19.2
CCC(NC(=O)c1ccc(C)n1C)c1ccc(Cl)cc1 (configuration not stated)
→ 1.3	2.9
Cc1sc(=O)n(CC(=O)N2CCCC3CC(C)CCC32)c1-c1ccc(F)cc1 (configuration not stated)
→ 3.3	8.0
COc1ccc(C(=O)N(CCN2CCOCC2)CC2CNCCO2)cc1OC (configuration not stated)
→ 7.8	20.4
CCOC(=O)C1(CCOc2ccccc2)CCN(Cc2cccn2-c2cccnc2)CC1
→ 8.4	5.0
CC(C)(C)NC(=O)N1CCN(C(C(=O)N2CCOCC2)C2CCCC2)CC1 (configuration not stated)
→ -17.9	-20.5
Cc1cnc(NC(=O)c2ccc(CN3CCOCC3)cc2)s1
→ 9.3	2.4
COc1cc2c(cc1OC)C(CNC(=O)c1ccco1)N(C(=O)Nc1ccccc1F)CC2 (configuration not stated)
→ 1.6	-0.5
Cc1nc(SCc2nc(Cc3ccccc3)no2)n[nH]1
→ -2.9	-2.3
Cc1ccc(Oc2ccc(NC(C)C(=O)NC(C)C)cc2)cc1 (configuration not stated)
→ -3.2	-2.6
O=C(Nc1cccc(C(F)(F)F)c1F)N1CC(=O)N2CCc3c(F)cccc3C2C1 (configuration not stated)
→ 3.8	15.0
CC(=O)NNC(=O)N1Cc2ccccc2Oc2ccc(Cl)cc21
→ -27.7	5.1
N#CC1(c2ccccc2)CCN(C(=O)C2CCCCC2C(=O)N[C@@H]2CCCc3ccccc32)CC1 (some centres not stated)
→ -2.5	-2.6
COc1cc(OC)cc(C(=O)N2CCC(c3nc(-c4ccc(F)c(F)c4)no3)CC2)c1
→ 3.9	3.4
O=C(NCCn1nc(-c2cccnc2)ccc1=O)Nc1ccc(F)c(F)c1
→ 2.5	11.2
COc1ccc(OCCNC(=O)C2(C)CCN2CCCc2ccccc2)cc1 (configuration not stated)
→ 1.6	2.1
N#Cc1cccc(NC(=O)COc2ccc(Cl)c(Cl)c2)c1
→ -6.6	-3.7
CCCN(C(=O)C(NC(=O)c1ccco1)C(C)C)C1CCS(=O)(=O)C1 (configuration not stated)
→ -1.5	-2.6
CN(C)CCNC(=O)[C@@]1(OCc2cccc(C(F)(F)F)c2)CC(OCc2cccc(F)c2F)[C@@H]2OC(C)(C)O[C@@H]2C1 (some centres not stated)
→ 9.0	14.8
N#Cc1nc(-c2ccc(S(=O)(=O)N3CCCCCC3)cc2)oc1NCc1cccnc1
→ 11.4	0.2
Cc1ccccc1C1(CC(=O)N(C)Cc2ccccc2)CC(=O)N(Cc2cccnc2)C1=O (configuration not stated)
→ 3.2	4.8
CCS(=O)(=O)c1ccc(NC(=O)NC2CCC(C)CC2)cc1 (configuration not stated)
→ 2.0	-1.7
COC(=O)c1ccc(N=Nc2c(-c3ccccc3)[nH]n(-c3ccccc3)c2=O)cc1
→ -10.8	-4.0
O=C(O)CCCN1C(=O)/C(=C/c2ccc([N+](=O)[O-])cc2)SC1=S
→ -6.1	-0.1
CCN(C(=O)c1cc(-c2ccccc2C)n[nH]1)C1CC1
→ -3.1	2.4
COCC(C)S(=O)(=O)NCC(C(C)C)N1CCOCC1 (configuration not stated)
→ 1.6	3.2
CCCn1c(SCC(=O)NC(C)c2ccc3c(c2)OCO3)nnc1-c1cccc(C)c1 (configuration not stated)
→ 7.5	3.6
CC(Cn1cncn1)NCc1cc(-c2ccccc2Cl)on1 (configuration not stated)
→ 2.3	8.9
N#CCSc1nnnn1-c1ccccc1F
→ -3.6	-0.9
Cc1ccc(C(O)c2ccc(C(F)(F)F)cc2)cc1 (configuration not stated)
→ 6.5	8.8
COc1ccccc1N1CCN(c2ccc(NC(=O)Nc3ccccc3C(F)(F)F)cc2C(=O)NCC(C)C)CC1
→ 17.1	8.3
COC(=O)CCCC(=O)Nc1cccc(-c2cccc(-c3ccc(OC)cc3)n2)c1
→ -7.1	-5.0
CCc1nc(CN2CCN(Cc3ccc(OC)cc3F)C(CCO)C2)c(C)[nH]1 (configuration not stated)
→ -3.5	1.0
O=C(Nc1ccccc1-c1cccs1)C1CCCN1 (configuration not stated)
→ -21.3	-21.8

Other compounds follow.
Screens in order – NPYLR7 agonist max-min	NPYLR7 agonist
c1cncc(OC2CCN(c3nc4nonc4nc3N3CCSCC3)CC2)c1
→ 0.9	6.2
CCNC(=O)C1(C)CCCCN1Cc1ccc(C#N)cc1 (configuration not stated)
→ 2.4	4.6
COc1cccc(C(C)N(C)Cc2nc(-c3cccc(Cl)c3)oc2C)c1 (configuration not stated)
→ -15.1	-8.8
COCCN(CCC(=O)O)c1nc(Cc2ccccc2)ns1
→ 17.2	6.5
CN(C)C(Cn1ccnc1-c1ccncc1)c1ccccc1Cl (configuration not stated)
→ 9.9	23.2
Cc1cccc(NC(=O)CCC2CCN(S(=O)(=O)c3cccc4cccnc34)CC2)c1
→ -5.1	-1.1
CCc1nn(CC(O)c2ccc(C(C)C)cc2)c(=O)c(C#N)c1CC (configuration not stated)
→ -3.7	-3.7
c1ccc2c(c1)CCC(N1CCN(Cc3nc(CC4CC4)no3)CC1)C2 (configuration not stated)
→ -3.5	4.0
Cc1c(Cl)c(C(F)(F)F)nn1CC(=O)Nc1ccc(OC(F)(F)F)cc1
→ -12.0	-9.8
CCOc1ccccc1N1CCN(S(=O)(=O)c2cc(C)c(C)cc2C)CC1
→ 0.8	0.4
CNC(=O)CNC(=O)c1cc(COc2ccccc2SC)on1
→ -2.1	-1.7
O=C(c1ccc(Cl)nc1)N1CCN(CC(OCc2ccc(C(F)(F)F)cc2)c2ccc(Cl)cc2)CC1 (configuration not stated)
→ 3.8	4.6
CCSc1nc(NC(C)C)c2cnn(CCNC(=O)Cc3cccc4ccccc34)c2n1
→ -2.9	-1.6
COc1ccc(CC(=O)N2CCc3c([nH]c4ccccc34)C2c2cccc(C)n2)cc1OC (configuration not stated)
→ 3.8	5.7
CC(C)n1cc(NC(=O)C2CCCN2C(=O)Nc2ccccc2)cn1 (configuration not stated)
→ -5.2	0.7
Cc1cc(O)c(C(=O)O)cc1S(=O)(=O)N1CCCc2cccc(F)c21
→ 7.1	12.0
Cc1ccc2oc(=O)cc(Cn3ccnc3)c2c1
→ 6.3	6.8
CCOC(=O)C1=C(C)N(C)C(=O)NC1c1cc2c(cc1Br)OCO2 (configuration not stated)
→ -9.2	-2.8
COc1cc(NC(=O)N2CCc3nc(NCc4cccc(Oc5ccccc5)c4)ncc3C2)cc(OC)c1OC
→ -8.5	-5.5
O=C(CNC(=O)c1ccccc1)OCc1cc(Cl)ccc1OC(F)F
→ 3.3	5.3
CC1CCN(CCCNc2cnn(-c3ccccc3)c(=O)c2Cl)CC1
→ 7.5	19.2
Cc1cccc(Cn2c(=O)c3c(nc4n(CCN5CCOCC5)c(C)c(C)n34)n(C)c2=O)c1
→ 32.9	-0.8
CC(=O)O[C@H]1C[C@@H]2CC[C@@H]3[C@H](CC[C@@]4(C)[C@H]3C[C@H]([N+]3(C)CCCCC3)[C@@H]4OC(C)=O)[C@@]2(C)C[C@@H]1[N+]1(C)CCCCC1
→ -12.1&-1.6	-2.5&-1.5
Cc1ccc(C)c(Cn2c(CN3CCOCC3)nc3c2c(=O)n(C)c(=O)n3C)c1
→ 7.1	0.6
Cc1cnc(C)c(-c2cc(O)c3c(c2)CN(c2ncccn2)CCO3)n1
→ -1.6	3.4
COC(=O)c1cc2n(n1)CCCN(C(=O)c1cc(=O)c3ccccc3o1)C2
→ 2.7	5.2
CCC(C)Nc1cc(C)nc2c(-c3ccccc3)c(C)nn12 (configuration not stated)
→ -2.1	0.2
CCOC(=O)c1ccc(OC2CC3CCC(C2)N3C(=O)c2ccc(CSc3cccs3)cc2)cc1 (configuration not stated)
→ 7.3	19.8
CN(C)S(=O)(=O)c1cc(C(=O)N2CCN(Cc3nc4ccccc4s3)CC2)ccc1Cl
→ -8.9	-1.5
COc1ccc2[nH]cc(C3CCN(S(=O)(=O)c4ccc(Cl)cc4)CC3)c2c1
→ 13.7	28.3

Profiles as entered above. Order of screens: NPYLR7 agonist max-min, NPYLR7 agonist
Shown for COC(=O)c1cc2n(n1)CCCN(C(=O)c1cc(=O)c3ccccc3o1)C2 → 2.7, 5.2
Shown for COc1ccc2[nH]cc(C3CCN(S(=O)(=O)c4ccc(Cl)cc4)CC3)c2c1 → 13.7, 28.3
Shown for Cc1ccc(C)c(Cn2c(CN3CCOCC3)nc3c2c(=O)n(C)c(=O)n3C)c1 → 7.1, 0.6
Shown for CCOC(=O)c1ccc(OC2CC3CCC(C2)N3C(=O)c2ccc(CSc3cccs3)cc2)cc1 (configuration not stated) → 7.3, 19.8

New compounds follow:
Screens in order – NPYLR7 agonist max-min	NPYLR7 agonist
CC(=NOCC(=O)Nc1nccs1)c1cccs1
→ 8.6	1.1
COc1ccc2c(CC(=O)Nc3nc(CN4CCCCC4)cs3)coc2c1
→ 6.7	0.8
Cc1nn(CC(=O)Nc2ccc(OC(F)(F)F)cc2)c(C)c1[N+](=O)[O-]
→ -5.6	-7.8
Cc1nnc(NC(=O)CSc2ccc(Cl)cc2)s1
→ -7.1	-2.0
O=C(COc1ccc2ccccc2c1)N=Nc1c(O)[nH]c2ccccc12
→ -5.1	-2.7
N#CCOc1ccc(Cl)cc1CN1CCCCC1C1OCCO1 (configuration not stated)
→ 3.9	7.1
CC(C(=O)NC1CCS(=O)(=O)C1)N1CCCC1Cn1cccn1 (configuration not stated)
→ -1.5	-0.8
O=C(CSc1nc2ccccc2[nH]1)NN=C1c2ccccc2-c2ccccc21
→ 5.6	0.7
COC(=O)c1ccc(CSc2nc(C)[nH]c2[N+](=O)[O-])o1
→ -5.4	-4.0
CS(=O)CC(NC(=O)c1ccc(O)c(Cl)c1)c1ccccc1 (configuration not stated)
→ 31.0	-0.1
CCN(CC)CCn1c(C)cn2c3c(=O)n(Cc4ccc(Cl)cc4)c(=O)n(C)c3nc12
→ 2.9	2.2
O=C(NOC1CCCCO1)C1CCCN1C(=O)c1ccc(Br)cc1 (configuration not stated)
→ 4.4	19.7
C=CCN1CCC(NC(=O)N(CC=C)Cc2cccc(C#N)c2)CC1
→ 1.1	4.3
Cn1ccnc1SCCn1ccnc1-c1ccncc1
→ -5.5	-3.1
COc1cc(S(=O)(=O)N2CCNCC2)ccc1-n1cnnn1
→ -7.7	-7.4
COc1ccc(C=NNC(=O)c2ccncc2)cc1O
→ -4.1	-0.2
COc1ccc2c(c1)CN(Cc1ccco1)C(=O)CCN2CC(O)COC(C)(C)C (configuration not stated)
→ 7.4	1.6
CCC1CCC2(CC1)NC(=O)N(Cc1ncc(-c3ccccc3)o1)C2=O (configuration not stated)
→ 2.7	9.4
COCCNC(=S)Nc1cc(Cl)c(N)c(Cl)c1
→ 2.8	5.8
Brc1ccc(-c2nn[nH]n2)o1
→ -5.4	-3.2
CC(NC(=O)C12C=CC(=O)C1C1C=CC2C1)c1ccccc1 (configuration not stated)
→ 5.7	6.3

High-throughput results deposited in PubChem by Fisher Drug Discovery Resource Center.
